Source: PubChem
KCNQ2 inh: KCNQ2 channel blockers in CHO-K1 cells – cell-based, FluxOR thallium flux, B-score, primary screen (AID 2156) | hit rate 1.1% among 310,000 | B-score at 10 µM | O88943 | 20 min; active compounds read low; only compounds with negative scores are shown here; some inactives read as strong as hits;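 active = fluorescence ratio B-score at most minus 3 library SDs, with starting brightness B-score within 2 library SDs, cut at about -5.5 in these data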
Target sequence (O88943 whole entry, looked up): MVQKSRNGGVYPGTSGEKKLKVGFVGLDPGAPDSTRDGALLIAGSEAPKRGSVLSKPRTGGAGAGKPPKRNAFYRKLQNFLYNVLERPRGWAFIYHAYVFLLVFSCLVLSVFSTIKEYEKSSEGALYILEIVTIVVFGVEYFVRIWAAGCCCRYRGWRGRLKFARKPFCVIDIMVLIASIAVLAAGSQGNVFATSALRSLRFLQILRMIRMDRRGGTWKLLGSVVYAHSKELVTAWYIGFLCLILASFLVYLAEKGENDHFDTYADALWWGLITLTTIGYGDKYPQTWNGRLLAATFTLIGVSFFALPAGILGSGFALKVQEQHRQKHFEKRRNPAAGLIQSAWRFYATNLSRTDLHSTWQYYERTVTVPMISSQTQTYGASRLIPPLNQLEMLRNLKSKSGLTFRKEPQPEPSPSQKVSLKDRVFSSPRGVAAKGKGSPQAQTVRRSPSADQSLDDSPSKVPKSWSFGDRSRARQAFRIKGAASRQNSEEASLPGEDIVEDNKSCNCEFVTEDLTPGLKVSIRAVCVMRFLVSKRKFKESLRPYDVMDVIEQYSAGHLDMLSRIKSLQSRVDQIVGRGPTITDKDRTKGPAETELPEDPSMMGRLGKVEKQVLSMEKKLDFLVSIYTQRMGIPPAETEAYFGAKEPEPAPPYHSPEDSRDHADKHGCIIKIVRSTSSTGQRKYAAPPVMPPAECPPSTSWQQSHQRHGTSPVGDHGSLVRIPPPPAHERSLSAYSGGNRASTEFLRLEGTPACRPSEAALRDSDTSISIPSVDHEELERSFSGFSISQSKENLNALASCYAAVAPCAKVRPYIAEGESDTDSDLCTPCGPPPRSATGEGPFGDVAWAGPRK
KCNQ2 inh baseline: recorded beside KCNQ2 inh, whose call it bears; B-score; measured here: initial fluorescence intensity artifact check;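 brightness before thallium and not channel activity; 0 = typical well and far values either way flag optical interference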
Starred values were filed as active, the others as inactive.

How did N#CCCC(CCC#N)C1=NCCc2ccccc21 do in these assays?
KCNQ2 inh: inactive; KCNQ2 inh baseline: 0.13

What do the screens show for `Cc1ccc2nc(-c3ccccc3Cl)cc(C(=O)Nc3cc(C)on3)c2c1`?
KCNQ2 inh: inactive; KCNQ2 inh baseline: -0.55

Results for CCCNC(=O)Cn1cc(S(=O)(=O)N2CCCC2)c(S(=O)(=O)N2CCCC2)c1 ?
KCNQ2 inh: inactive; KCNQ2 inh baseline: 1.5

Results for Cc1cscc1NC(=O)/C=C/C(=O)O ?
KCNQ2 inh: inactive; KCNQ2 inh baseline: 0.02

What do the screens show for `OC(CCN1CCCCC1)(c1ccccc1)C1CCCCC1` (stereo not given)?
KCNQ2 inh: inactive; KCNQ2 inh baseline: 2.4

Results for CC(=O)c1ccc(N2CCN(C(=O)c3ccc(-c4ccccc4)cc3)CC2)cc1 ?
KCNQ2 inh: inactive; KCNQ2 inh baseline: 2.4

Results for CCN(CCCNC(=O)C1CCN(S(=O)(=O)c2cccc3nonc23)CC1)Cc1ccccc1 ?
KCNQ2 inh: inactive; KCNQ2 inh baseline: 2.2

Results for CCc1cccc2c(C(=O)C(NCCCOC)c3ccccc3)c[nH]c12 (stereo not given) ?
KCNQ2 inh: inactive; KCNQ2 inh baseline: -0.13

How did O=C(/C=C\NCC(=O)c1ccccc1)c1ccccc1 do in these assays?
KCNQ2 inh: inactive; KCNQ2 inh baseline: -1.5

How did O=C(Nc1ccc(Br)c(C(F)(F)F)c1)c1ccc(C(F)(F)F)cc1 do in these assays?
KCNQ2 inh: inactive; KCNQ2 inh baseline: 0.05

Results for CC1CC(C)CN(C(=O)c2ccc3ccccc3c2)C1 (stereo not given) ?
KCNQ2 inh: inactive; KCNQ2 inh baseline: -0.2

What do the screens show for `CCc1cc(-c2n[nH]c(C)c2-c2nc3ccccc3n2C)c(O)cc1O`?
KCNQ2 inh: inactive; KCNQ2 inh baseline: -0.24

Results for COc1ccccc1NC(=S)N1CCC(NC(=O)NC23CC4CC(CC(C4)C2)C3)CC1 ?
KCNQ2 inh: inactive; KCNQ2 inh baseline: 0.04

How did COc1ccc(NC2CCCN(C(=O)CCc3cccc(Cl)c3)C2)cc1 (stereo not given) do in these assays?
KCNQ2 inh: inactive; KCNQ2 inh baseline: -0.01

Results for Cc1ccc(C(=O)N/C(=C\c2cccs2)C(=O)NCCc2c[nH]c3ccccc23)cc1C ?
KCNQ2 inh: inactive; KCNQ2 inh baseline: 0.49

How did COc1cccc(OCCOCCOc2ccc(C)cc2[N+](=O)[O-])c1 do in these assays?
KCNQ2 inh: inactive; KCNQ2 inh baseline: 1.3

What do the screens show for `CN(C(=O)c1cccs1)c1ccc(OCC(=O)N2CCC(C(N)=O)CC2)cc1`?
KCNQ2 inh: inactive; KCNQ2 inh baseline: -0.05

How did CN(C)CCN(C(=O)c1cccc(Cl)c1)c1nc2c(Cl)cccc2s1 do in these assays?
KCNQ2 inh: inactive; KCNQ2 inh baseline: 1.2

How did CCCc1cc(=O)[nH]c(Nc2ccc(Cl)cc2)n1 do in these assays?
KCNQ2 inh: inactive; KCNQ2 inh baseline: 0.74

How did CCC(=O)c1ccc(O)c(OC)c1 do in these assays?
KCNQ2 inh: inactive; KCNQ2 inh baseline: 1.8

What do the screens show for `COc1cc2c(cc1OC)-c1nncn1C(C)(C)C2`?
KCNQ2 inh: inactive; KCNQ2 inh baseline: 1.2

What do the screens show for `Cc1noc(C)c1CSCC(=O)Nc1nnc(CC(C)C)s1`?
KCNQ2 inh: inactive; KCNQ2 inh baseline: 0.01

What do the screens show for `COc1ccc(/C(N)=N/OC(=O)CCCc2ccccc2)cc1OC`?
KCNQ2 inh: inactive; KCNQ2 inh baseline: 0.08

How did O=C(Nc1nccs1)c1ccc2c(c1)C(=O)N(Cc1cccnc1)C2=O do in these assays?
KCNQ2 inh: inactive; KCNQ2 inh baseline: 1.6

How did Cc1ccc(CNc2ccc3c(c2)OCO3)cc1 do in these assays?
KCNQ2 inh: inactive; KCNQ2 inh baseline: 4.2

Results for CCN1CCN(C(=O)CN(C)S(=O)(=O)c2ccc(Cl)cc2)CC1 ?
KCNQ2 inh: inactive; KCNQ2 inh baseline: -0.51

Results for COc1ccc(C2/C(=C(/O)c3ccc(Cl)cc3)C(=O)C(=O)N2CCN2CCOCC2)c(OC)c1 (stereo not given) ?
KCNQ2 inh: inactive; KCNQ2 inh baseline: 0.47

Results for COC(=O)c1cc(NC(=S)N2CCN(C(=O)C3CCCO3)CC2)cc(C(=O)OC)c1 (stereo not given) ?
KCNQ2 inh: inactive; KCNQ2 inh baseline: 0.3

Results for Cc1nonc1C1CCCN1C(=O)c1cc(COc2cccc(C(F)(F)F)c2)on1 (stereo not given) ?
KCNQ2 inh: inactive; KCNQ2 inh baseline: -1.4

Results for N#CC1=C(N)N2C(=C(C#N)C1c1ccccc1)Sc1ccccc12 (stereo not given) ?
KCNQ2 inh: inactive; KCNQ2 inh baseline: 1.1

Results for O=C(C(Cc1ccccc1)n1cccc1)N1CCc2ccccc21 (stereo not given) ?
KCNQ2 inh: inactive; KCNQ2 inh baseline: -0.18

How did COC(=O)c1cc(=O)[nH]c(SCc2cccc(C)c2)n1 do in these assays?
KCNQ2 inh: inactive; KCNQ2 inh baseline: -0.01

What do the screens show for `NC(=O)c1c(NC(=O)c2c(F)cccc2F)sc2c1CCN(Cc1ccccc1)C2`?
KCNQ2 inh: inactive; KCNQ2 inh baseline: 0.86

How did COc1ccccc1CN1C[C@@H]2C[C@@H](c3cccc(O)c3)N3CCC[C@@]23C1=O do in these assays?
KCNQ2 inh: inactive; KCNQ2 inh baseline: 0.45

Results for CC(=O)Nc1cc(NC(C)=O)cc(C(=O)NC(C)(C)C)c1 ?
KCNQ2 inh: inactive; KCNQ2 inh baseline: -0.29

Results for O=C(COC(=O)c1ccc[nH]c1=O)Nc1cc(S(=O)(=O)N2CCCCC2)ccc1Cl ?
KCNQ2 inh: inactive; KCNQ2 inh baseline: -0.01

Results for Cc1cc(-c2ccccc2)nc(N(C)C)c1S(C)(=O)=O ?
KCNQ2 inh: inactive; KCNQ2 inh baseline: -0.4

What do the screens show for `CN(C)c1ccc(NC(=O)CSc2nc3ccccc3c(=O)n2CC2CCCO2)cc1` (stereo not given)?
KCNQ2 inh: inactive; KCNQ2 inh baseline: -0.03

Results for COCCNC(=O)CSc1nc2cc(OC)c(OC)cc2c(=O)n1CCc1ccc(S(N)(=O)=O)cc1 ?
KCNQ2 inh: inactive; KCNQ2 inh baseline: 1.3

How did CSc1cc(CS(=O)(=O)c2ccccc2)nc(-c2ccccc2)n1 do in these assays?
KCNQ2 inh: inactive; KCNQ2 inh baseline: -0.47

What do the screens show for `O=C(O)c1ccccc1Sc1ncnc2sccc12`?
KCNQ2 inh: inactive; KCNQ2 inh baseline: -0.05

How did COc1ccc(NC(=O)O/N=C2/CCCc3ccc(OC)cc32)cc1 do in these assays?
KCNQ2 inh: inactive; KCNQ2 inh baseline: 0.04

Results for COc1ccc(NC(=O)c2cc(-c3ccco3)on2)cc1OC ?
KCNQ2 inh: inactive; KCNQ2 inh baseline: -0.1

What do the screens show for `COc1ccc2c(c1)-c1c(ssc1=S)C(C)(C)N2C(=O)CSC1=NCCS1`?
KCNQ2 inh: inactive; KCNQ2 inh baseline: -0.38

What do the screens show for `C=CCNC(=O)c1c(C(F)(F)F)nn(C)c1Cl`?
KCNQ2 inh: inactive; KCNQ2 inh baseline: 0.88

How did CC1CCN(S(=O)(=O)c2ccc3c(c2)NC(=O)CS3)CC1 do in these assays?
KCNQ2 inh: inactive; KCNQ2 inh baseline: -0.87

Results for CCN(CC)S(=O)(=O)c1ccc(C(=O)NCCCN=C2NS(=O)(=O)c3ccccc32)cc1 ?
KCNQ2 inh: inactive; KCNQ2 inh baseline: 0.97

What do the screens show for `O=C(NCCN1C(=O)S/C(=C\c2ccc(Cl)cc2Cl)C1=O)C1=COCCO1`?
KCNQ2 inh: inactive; KCNQ2 inh baseline: 0.16

How did CC(O)(C#CCN1CCCC1)c1ccccc1 (stereo not given) do in these assays?
KCNQ2 inh: inactive; KCNQ2 inh baseline: 1

What do the screens show for `Cc1nccn1S(=O)(=O)c1cc([N+](=O)[O-])ccc1Cl`?
KCNQ2 inh: inactive; KCNQ2 inh baseline: -1.6

Compounds shown so far with two or more sulfur atoms:
Results for CCCNC(=O)Cn1cc(S(=O)(=O)N2CCCC2)c(S(=O)(=O)N2CCCC2)c1 ?
KCNQ2 inh: inactive; KCNQ2 inh baseline: 1.5

What do the screens show for `Cc1noc(C)c1CSCC(=O)Nc1nnc(CC(C)C)s1`?
KCNQ2 inh: inactive; KCNQ2 inh baseline: 0.01

Results for COCCNC(=O)CSc1nc2cc(OC)c(OC)cc2c(=O)n1CCc1ccc(S(N)(=O)=O)cc1 ?
KCNQ2 inh: inactive; KCNQ2 inh baseline: 1.3

How did CSc1cc(CS(=O)(=O)c2ccccc2)nc(-c2ccccc2)n1 do in these assays?
KCNQ2 inh: inactive; KCNQ2 inh baseline: -0.47

What do the screens show for `O=C(O)c1ccccc1Sc1ncnc2sccc12`?
KCNQ2 inh: inactive; KCNQ2 inh baseline: -0.05

What do the screens show for `COc1ccc2c(c1)-c1c(ssc1=S)C(C)(C)N2C(=O)CSC1=NCCS1`?
KCNQ2 inh: inactive; KCNQ2 inh baseline: -0.38

How did CC1CCN(S(=O)(=O)c2ccc3c(c2)NC(=O)CS3)CC1 do in these assays?
KCNQ2 inh: inactive; KCNQ2 inh baseline: -0.87

Results for CCN(CC)S(=O)(=O)c1ccc(C(=O)NCCCN=C2NS(=O)(=O)c3ccccc32)cc1 ?
KCNQ2 inh: inactive; KCNQ2 inh baseline: 0.97

(listing goes on)
What do the screens show for `O=c1nccc(SCc2ccc(Cl)cc2Cl)[nH]1`?
KCNQ2 inh: inactive; KCNQ2 inh baseline: -0.74

What do the screens show for `CC(=O)Nc1ccc(S(=O)(=O)Nc2nccs2)cc1`?
KCNQ2 inh: inactive; KCNQ2 inh baseline: 1.3

How did O=C1Nc2ccccc2/C1=C\c1cccn1-c1ccc(OC(F)(F)F)cc1 do in these assays?
KCNQ2 inh: inactive; KCNQ2 inh baseline: 0.03

How did CCOC(=O)C1C2C=CC3(CN(Cc4ccco4)C(=O)C13)O2 (stereo not given) do in these assays?
KCNQ2 inh: inactive; KCNQ2 inh baseline: -0.28

How did Cc1ccc(C(=O)N/C(=C/c2ccc(N(C)C)cc2)C(=O)NCC2CCCO2)cc1 (stereo not given) do in these assays?
KCNQ2 inh: inactive; KCNQ2 inh baseline: 0.05

How did O=S(=O)(c1cccc(-c2csc(-c3cccnc3)n2)c1)N1CCCCC1 do in these assays?
KCNQ2 inh: inactive; KCNQ2 inh baseline: 2.1

How did CS(=O)(=O)N(Cc1ccc(C(=O)Nc2ccccc2Sc2ccccc2)cc1)c1ccccc1 do in these assays?
KCNQ2 inh: inactive; KCNQ2 inh baseline: -0.61

What do the screens show for `NS(=O)(=O)c1cccc(NC(=O)COc2ccc([N+](=O)[O-])cc2)c1`?
KCNQ2 inh: inactive; KCNQ2 inh baseline: 1.8

How did CCOc1ccc(S(=O)(=O)c2c(C(=O)c3ccccc3)cnc3cc4c(cc23)OCCO4)cc1 do in these assays?
KCNQ2 inh: inactive; KCNQ2 inh baseline: 2.2

What do the screens show for `O=C(Nc1nnc(C2=COCCO2)o1)c1ccc(S(=O)(=O)N2CCOCC2)cc1`?
KCNQ2 inh: inactive; KCNQ2 inh baseline: -0.01

Results for Oc1ccc(/C=N/NC(=S)NC2CC3CCC2C3)cc1 (stereo not given) ?
KCNQ2 inh: inactive; KCNQ2 inh baseline: 0.59

Results for Cc1ccc(C(=O)Nc2ccc(N3CCCC3)cc2)c(C)c1 ?
KCNQ2 inh: inactive; KCNQ2 inh baseline: -0.03

Results for O=C(CSc1c[nH]c2ccccc12)NC1CCCC1 ?
KCNQ2 inh: inactive; KCNQ2 inh baseline: -0.32

How did COC(=O)CC1COc2ccccc2N1S(=O)(=O)c1ccc(Br)cc1 (stereo not given) do in these assays?
KCNQ2 inh: inactive; KCNQ2 inh baseline: -0.19

What do the screens show for `COc1ccccc1CNC(=O)C(=O)NCC1OCCN1S(=O)(=O)c1ccc(Br)cc1` (stereo not given)?
KCNQ2 inh: inactive; KCNQ2 inh baseline: 2.3

What do the screens show for `COc1ccc(C(=O)NC(=S)Nc2ccc(Cl)c(C(=O)O)c2)cc1`?
KCNQ2 inh: inactive; KCNQ2 inh baseline: 0.26

What do the screens show for `O=C(Nc1ccc2c(c1)OCCO2)c1cc(F)c(F)cc1Cl`?
KCNQ2 inh: inactive; KCNQ2 inh baseline: -0.57

Results for COC(=O)c1c(NC(=O)c2ccccc2)sc(Cc2ccccc2)c1C ?
KCNQ2 inh: inactive; KCNQ2 inh baseline: 1.3

Results for N#Cc1c(N)nc(N2CCCC2)c(C#N)c1-c1ccc(Cl)cc1 ?
KCNQ2 inh: inactive; KCNQ2 inh baseline: 0.16

How did CCCCn1nc(C(=O)N2CCc3ccccc32)c2ccccc2c1=O do in these assays?
KCNQ2 inh: inactive; KCNQ2 inh baseline: -0.86

Results for O=S(=O)(CCc1nnc(-c2ccc(Br)cc2)o1)c1ccc(Cl)cc1 ?
KCNQ2 inh: inactive; KCNQ2 inh baseline: 0.49

What do the screens show for `Oc1ccc(N2CCN(Cc3nc4ccccc4[nH]3)CC2)cc1`?
KCNQ2 inh: inactive; KCNQ2 inh baseline: -0.25

Results for Clc1ccccc1Cc1noc(CN2CCN(Cc3ccccn3)CC2)n1 ?
KCNQ2 inh: inactive; KCNQ2 inh baseline: 0.09

What do the screens show for `Cc1cc(-c2c(C)[nH]n(-c3ccc(Cl)cc3)c2=O)n(-c2ccc(Cl)cc2)n1`?
KCNQ2 inh: inactive; KCNQ2 inh baseline: -1.1

Results for Cc1cc(NC(=O)c2cc3cccc([N+](=O)[O-])c3[nH]2)ccc1F ?
KCNQ2 inh: inactive; KCNQ2 inh baseline: 0.7

Only part of the results is shown, so the mix of outcomes need not match the whole.
